Assay outcomes (PubChem BioAssay)
VACV mCherry inh = vaccinia inhibition (mCherry reporter); AID 720579; 310,000 compounds, 0.63% hits; Vaccinia virus mCherry reporter infection, fluorescence; about a quarter of the inactives have no number; Potency, µM (titrated, usually from 36.5 µM), inactives show at the highest dose activity change, negative = inhibition, most hits filed as inhibitors; active = well fitted inhibition curve with a large enough effect; inconclusive = small, poorly fitted or top-dose-only effect; inactive = no such curve, though single readings can be large or run the other way; tested in A549 cells; further: nearly all actives have a fitted effect of over 35% in size; inactives centre near -10
Vaccinia Venus = inhibitors of vaccinia virus (Venus reporter); Vaccinia virus Venus reporter expression, fluorescence; Potency, µM (titrated, usually from 36.5 µM), for the others: top-dose activity change, negative = inhibition, hits mostly inhibitors; 330,000 compounds, 0.46% hits; active means well fitted inhibition curve with a large enough effect; inconclusive means small, poorly fitted or top-dose-only effect; inactive means no such curve, though single readings can be large or run the other way; tested in A549 cells; further: nearly all actives have a fitted effect of over 30% in size; inactives centre near -10
Numbers without * were called inactive; i = inactive; ? = inconclusive; / = no result given; & = joins results of further samples; [ ] = another dose, or the depositor's remark. On the % scale 0 is the no-effect control and ±100 the full control effect; potency means the concentration at half of the fitted maximal effect.

SMILES	VACV mCherry inh	Vaccinia Venus
Cc1cc(NC(=O)C(=O)c2c(C)[nH]c3ccccc23)no1	-2%	1%
COc1cc(NS(=O)(=O)c2ccc(N)cc2)ncn1	-21%	-12%
COc1ccc(NC(=O)CC2(CC(=O)O)CCCC2)cc1	i	-1%
Cc1ccc(-c2cc(C(=O)NCc3ccco3)c3ccccc3n2)o1	/	-5%
CN(CC(=O)Nc1cccc(F)c1)C(=O)c1ccc(C2SCCS2)cc1	?	-29%
O=c1[nH]c2c(s1)C(c1ccc(O)cc1)C1C3CCC(C3)C1S2 (centres undefined)	?	-18%
CCOC(=O)CNC(=O)N1Cc2cc(N3CCCCC3)ccc2-n2nncc2C1	5%	3%
N=C1/C(=C\c2ccc(-c3cccc(Cl)c3)o2)C(=O)N=C2SC=C(c3ccccc3)N12	-14%	9%
Cc1ccc(-c2c(C#N)c(N)n(-c3ccc(C)cc3)c(=O)c2C#N)cc1	/	-10%
c1ccc2c(c1)Sc1ccccc1N2CC1CN2CCC1CC2 (centres undefined)	-11%	-11%
CC(C)CN1CCC(C(=O)N2CCN(c3ccccc3F)CC2)CC1	i	-11%
COc1cc(C(C)=O)ccc1OCC(=O)OCCCOC(=O)COc1ccc(C(C)=O)cc1OC	-7%	0%
Cc1ccc(S(=O)(=O)N2CCCC2)cc1C(=O)N1CCC(C)CC1	-2%	-2%
COc1ccc(N2CCN(C(=O)CCc3ccc(S(=O)(=O)NC(C)C)cc3)CC2)cc1	-15%	-5%
O=C(C1CCC(Cn2c(=O)c3sccc3n(Cc3ccc(F)cc3)c2=O)CC1)N1CCOCC1 (centres undefined)	-16%	-16%
C/C=C\C=C\C(=O)N1CC2(CC(c3cccc(NC(=O)COc4ccc(Cl)cc4)c3)=NO2)C[C@H]1C(N)=O (some centres undefined)	i	-15%
COc1cc(OC)c(NC(=O)N2CCC(CN3CCCC3)CC2)cc1Cl	-13%	-16%
Cn1nnnc1SCCNCc1ccccc1OCc1ccccc1Cl	i	-3%
COc1ccc(C(CNC(=O)c2ccc(S(=O)(=O)N3CCOCC3)cc2)N2CCCCC2)cc1 (centres undefined)	i	-7%
CC1(C(=O)NS(=O)(=O)C2CC2)CCCN(C(=O)C2(c3ccc(Cl)cc3)CCCC2)C1 (centres undefined)	5%	-5%

Other structures.
SMILES	VACV mCherry inh	Vaccinia Venus
Cc1ccc(NC(=O)c2cccc(S(C)(=O)=O)c2)cc1	-10%	-5%
CC(=O)c1ccc(Nc2nc3ccc(C)cc3n3cnnc23)cc1	-8%	-8%
COc1ccccc1CNC(=O)CCSCc1cccc(Cl)c1	-20%	-9%
COC(=O)C(Cc1ccccc1)NC(=O)CSc1nc(C)cc(=O)[nH]1 (centres undefined)	i	-7%
[O-]/[N+](=C\c1ccccc1)c1ccc(Br)cc1	?	-11%
CCOc1cc(/C=C(\C#N)C(=O)Nc2ccc(S(N)(=O)=O)cc2)ccc1OCCN1CCOCC1	-6%	-3%
COc1cccc(NS(=O)(=O)c2ccc3[nH]cc(C(=O)NC4CC4)c(=O)c3c2)c1	-8%	-18%
O=C1CC(c2ccco2)CC2=C1C(c1ccccc1)n1nc(C(F)(F)F)nc1N2 (centres undefined)	/	-19%
C=C1C(C(=O)Nc2ccc(F)cc2)C1C(=O)Nc1ccc(F)cc1 (centres undefined)	-16%	-16%
O=C(CSc1nccc2ccccc12)N1CCN(Cc2ccc3c(c2)OCO3)CC1	-23%	-3%
COCCCNS(=O)(=O)c1ccc2[nH]c(=O)[nH]c2c1	-18%	6%
COc1ccc(C(=O)NNC(=S)NC(=O)c2cccs2)cc1	?	7%
CSCCC(NC(=O)COc1ccccc1)C(=O)N(C)CC(=O)Nc1c(C)cccc1C (centres undefined)	-8%	-7%
CCOC(=O)C(NC(C)=O)(OCc1ccccc1)C(F)(F)F (centres undefined)	-12%	-2%
CC1CCN(C(=O)CN2C(=O)C(C)(C)Oc3ccc(C(=O)NC(C)C)cc32)CC1	-8%	-10%
O=C(CC12CC3CC(CC(Br)(C3)C1)C2)OCCN1CCCCC1	-4%	-4%
Cc1c(C)n(C)c2ccc(C(=O)NCCCN3CCN(C)CC3)cc12	i	-11%
Cn1c(=O)c(=O)n(C)c2cc(NC(=O)c3cccc(F)c3)c(Cl)cc21	-14%	-6%
CN(CC(=O)Nc1ccc(F)c(F)c1F)C(=O)Cc1ccc2c(c1)OCCO2	-14%	-9%
O=C(COC(=O)COc1ccccc1)Nc1ncc(Cl)cc1Cl	-13%	-9%

(next part)
SMILES	VACV mCherry inh	Vaccinia Venus
CN1CCN(C(=S)Nc2cc([N+](=O)[O-])ccc2Cl)CC1	-3%	-20%
CCCCOC(=O)C1=C(C)NC(=O)NC1c1ccc(OC)cc1 (centres undefined)	i	-1%
CC(=O)Nc1ccc(NC(=O)Cc2sc(C)nc2-c2ccc(C)cc2)cc1	-11%	1%
O=C(CC1N=C2c3ccccc3N=C(SCc3cccc(Cl)c3)N2C1=O)NCCc1ccccc1 (centres undefined)	?	?
Cc1ccc(-n2nnnc2C(Cl)c2nnnn2-c2ccc(C)cc2)cc1	-2%	-22%
Cc1sc2ccccc2c1CNC[C@H]1O[C@@H](n2cnc3c(N)ncnc32)[C@H](O)[C@@H]1O	i	-13%
O=C(c1ccc(N2C(=O)CCC2=O)cc1)N1CCOCC1	i	-5%
CC(=O)OC1CCC2C3CCC4OC(=O)CCC4C3CCC12C (centres undefined)	i	-9%
Cc1ccc(C)c(CN2C(=O)c3ccccc3S(=O)c3ccc(C(=O)N4CCC(C)CC4)cc32)c1 (centres undefined)	-23%	-14%
Cc1ccc(NC(=O)CC2C(=O)N(Cc3ccccc3)C(=S)N2NC(=O)c2ccccc2)c(C)c1 (centres undefined)	-26%	?
Cc1cccc(-c2nnc(-c3ccc4ccccc4c3)o2)c1	-5%	-7%
CC(C)c1cccc(-c2csc(C(C)(O)c3ccncc3)n2)c1 (centres undefined)	i	-7%
CCOC(=O)c1cccc(NC(=O)c2cc3cc4ccc(C)cc4nc3s2)c1	?	?
COc1cc(NS(=O)(=O)c2ccc(OC)c(C)c2C)c(OC)cc1Cl	?	?
Cc1cc(C(=O)N2CCN(c3ncccn3)CC2)sc1-c1ccccc1	-9%	0%
CCOC(=O)Cn1c(=O)n(C2CCCCC2)c2nc(-c3ccc(OCC)cc3)nc(C(N)=O)c21	-6%	-10%
O=C(CSc1ccc(-c2cccc([N+](=O)[O-])c2)nn1)NCc1ccccc1	-6%	-14%
CN(CC(=O)Nc1cccc(C(F)(F)F)c1)S(=O)(=O)c1cccs1	-13%	-7%
COc1cc2c(cc1OC)CN(C1CCC(C(C)(C)C)CC1)CC2 (centres undefined)	?	-13%
Nc1ccc(N=Nc2ccccc2)c(N)n1	-13%	-15%&-4%

The list goes on.
SMILES	VACV mCherry inh	Vaccinia Venus
CCOC(=O)NC(=O)/C(N=Nc1cccc(C(F)(F)F)c1)=C(\C)O	-4%	-8%
CN(Cc1ccco1)C(=O)Cn1c(=O)oc2cc(S(=O)(=O)NCc3ccccc3)ccc21	-8%	-12%
CCOC(=O)c1ccc(NC(=O)Cn2nnc(-c3ccccc3F)n2)cc1	-14%	-10%
C[C@@H]1CN(C(=O)c2cc(COc3cccc(C(F)(F)F)c3)on2)C[C@H](C)O1	-1%	-12%
O=C(COC(=O)c1ccccc1OC(F)F)Nc1ccc2[nH]c(=O)[nH]c2c1	-4%	-6%
Cn1c(=O)c2[nH]c(N3CCN(c4cccc(O)c4)CC3)nc2n(C)c1=O	-7%	-8%
C=CCn1c(SCC(=O)c2c(N)n(C3CC3)c(=O)[nH]c2=O)nnc1-c1ccccc1OC	-4%	-15%
c1ccc2c(c1)-c1cccc3cncc-2c13	-11%	-6%
COC(=O)c1scc(-c2ccc(C)cc2)c1S(=O)(=O)Nc1ccc(N(C)C)cc1	-27%	-10%
Cc1ccc(S(=O)(=O)N2CCC[C@H]2C(=O)OCC(=O)c2ccc3c(c2)NC(=O)CO3)cc1	-8%	-1%
COc1cc2c(cc1OC)[C@H](C)N(C(=S)Nc1ccc(F)cc1)CC2	-15%	0%
Cc1ccc(-c2cc(C(=O)Nc3cccnc3)c3ccccc3n2)s1	-11%	-5%
C/C(=N\NC(=O)c1ccccc1N)c1ccc(NC(=O)Cc2ccccc2)cc1	-4%	?
CCOc1ccccc1Nc1nc(N)nc(CSc2nccc(C)n2)n1	-15%	-6%
O=C(NCc1cccc(F)c1)c1ccc(NC(=O)c2nsc3ccccc23)cc1	-9%	-9%
COc1ccc(NC(=O)CSc2nc3cc(OC)c(OC)cc3c3nc(-c4ccccc4)nn23)cc1Cl	-3%	-8%
COC(=O)c1sccc1S(=O)(=O)N1CCN(c2cccc(C)c2)C(C)C1 (centres undefined)	-3%	-5%
CCCCOC(=O)n1c(=O)oc2ccccc21	/	-17%
COc1ccc(C)cc1S(=O)(=O)Nc1ccc2c(c1)N(C(C)=O)CCC2	-21%	-17%
CCS(=O)(=O)N1CCN(CC(=O)NC2CCCCC2)CC1	i	0%

Going on with the list:
SMILES	VACV mCherry inh	Vaccinia Venus
CCOC(=O)Cc1csc(NC(=O)c2c(O)c3ccccc3n(CC(C)C)c2=O)n1	-3%	-3%
CO/N=C/C(=N\Nc1ccccc1)C(=O)c1ccccc1	-8%	-7%
CC1CCc2c(sc(NC(=O)c3ccc(Cn4cc([N+](=O)[O-])cn4)o3)c2C#N)C1 (centres undefined)	-9%	-18%
Cc1ccc2c(c1)nnn2C1CCN(S(=O)(=O)c2ccc3ccccc3c2)CC1	?	-26%
CCOC(=O)Cn1c(=O)oc2cc(S(=O)(=O)NCC3CCCO3)ccc21 (centres undefined)	i	-10%
O=C(c1ccc(S(=O)(=O)Nc2ccccc2F)cc1)N1CCCCCC1	i	-15%
O=C1ON(Cc2ccccc2)C(c2ccccc2)N1c1ccccc1 (centres undefined)	-21%	2%
O=C(COc1ccccc1)Nc1nnc(S(=O)(=O)N2CCCCC2)s1	-7%	-4%
Cc1cc(-c2nnn(CCCOC(C)(C)C)c2C)ccc1-c1cn(CCCOC(C)(C)C)nn1	?	?
Cc1nc2ccc(S(=O)(=O)NC(C(=O)N3CCC(C)CC3)C(C)C)cc2s1 (centres undefined)	2%	-3%
O=C(c1ccccc1)C1CCN(C(=O)c2cccs2)CC1	i	-10%
Cc1cc(C)c(S(=O)(=O)Nc2c(C)[nH]c(=O)[nH]c2=O)c(C)c1	-16%	-7%
COc1ccc(CCNC(=O)Cn2c(=O)n(-c3ccc(C)c(C)c3)c(=O)c3c(C)c(C)sc32)cc1OC	-1%	-6%
COc1ccc(NC(=O)CN(C)S(=O)(=O)c2ccc(Br)s2)cc1OC	-16%	-16%
C[C@H]1CNC(=O)c2c(C(=O)N[C@@H](Cc3c[nH]c4ccccc34)C(=O)OC(C)(C)C)ncn21	?	-6%
Cc1ccc(Oc2nc3ccccn3c(=O)c2/C=C(\C#N)c2nc3ccccc3s2)c(C)c1	-45%	-25%
COc1ccc(NC(=O)C2=C(C)NC(=O)NC2c2ccccc2[N+](=O)[O-])cc1 (centres undefined)	?	-12%
Cc1cc(NS(=O)(=O)c2ccc(NC(=S)NC(=O)c3ccc(Cl)cc3Cl)cc2)no1	/	-18%
O=C(CN1C(=O)COc2ccc(S(=O)(=O)N3CCCC3)cc21)N1CCN(c2ccc(F)cc2)CC1	-12%	-9%
O=C(Nc1cccc([N+](=O)[O-])c1)N1CCN(c2ccccc2)CC1	-22%	-10%

Additional records follow.
SMILES	VACV mCherry inh	Vaccinia Venus
Cc1cc2oc(=O)cc(CN3CCCCC3)c2cc1C(C)C	-7%	2%
Cc1cc(C)c(NC(=O)C2CCN(C(=O)N3CCOc4ccccc43)CC2)c(C)c1	-15%	-12%
O=C(CSC(=O)c1ccccc1)Nc1ccccc1F	-13%	7%
CC(=O)Nc1ccccc1C(=O)OCC(=O)Nc1ncccn1	15%	-1%
CS(=O)(=O)c1ccc(-c2cccc3c2OC(CNC(=O)c2ccnc(Cl)c2)C3)cc1 (centres undefined)	-5%	0%
CC(=O)c1sc(NC(=O)COc2ccc(C(C)C)c(C)c2)nc1C	-2%	-1%
CN(C(=O)COC(=O)C1CSC2(C)CCC(=O)N12)c1ccccc1 (centres undefined)	-14%	-8%
CCC1CCCCN1C(=O)c1c[nH]c2ccc(S(=O)(=O)Nc3cccc(OC)c3)cc2c1=O (centres undefined)	1%	-5%
Cc1cc(N)n(-c2ccccc2C)n1	11%	4%
COCCNC(=O)C1CCCN(C(=O)c2ccc(SC(F)(F)F)cc2)CC1 (centres undefined)	37%[activator]	-1%
Cc1ccsc1/C=N\NC(=O)Cn1nnc2ccccc21	?	?
CCOc1ccc(-c2cc(C(=O)NCc3ccccc3Cl)c3ccccc3n2)cc1	-24%	-25%
COC(=O)c1c(NC(=O)c2nc3nc(C)cc(C(F)F)n3n2)sc2c1CCC2	?	-2%

Three entries picked at random from those above:
SMILES	VACV mCherry inh	Vaccinia Venus
CC(=O)c1sc(NC(=O)COc2ccc(C(C)C)c(C)c2)nc1C	-2%	-1%
CCC1CCCCN1C(=O)c1c[nH]c2ccc(S(=O)(=O)Nc3cccc(OC)c3)cc2c1=O (centres undefined)	1%	-5%
CN(C(=O)COC(=O)C1CSC2(C)CCC(=O)N12)c1ccccc1 (centres undefined)	-14%	-8%
